High-throughput results from PubChem.
TAR Tat displ – HIV-1 TAR-Tat binding disruption | 0.6% of 100,000 active | z-score (no concentration beside the values) | HIV-1 TAR RNA, Tat peptide displacement FRET; active compounds read high;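 also: score is relative to mean and SD of negative controls; some compounds called inactive have numbers as strong as hits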
CDC25B-CDK2 inh – human CDC25B-CDK2/CyclinA binding inhibition. HTRF CDC25B-CDK2/CyclinA binding, anti-His/anti-Flag; active compounds read high. P30305+P24941. z-score (test concentration not listed). 0.72% of 94,000 active;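 also: score is relative to mean and SD of negative controls; strong numbers were not always called active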
An asterisk follows results filed as active; / = no result given.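 The calls were made as follows: active = z-score from 3 up in half or more of its runs; inactive = the rest.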 Compounds were not picked by outcome, and some 0.87% of all compounds hit somewhere here.

SMILES	TAR Tat displ	CDC25B-CDK2 inh
COc1ccc(OC)c(-c2cc(C(=O)O)c3c(-c4ccccc4)[nH]nc3n2)c1	1.9	/
N/C(=N\c1ncn[nH]1)N/N=C/c1c(Cl)cccc1Cl	/	0
O=C(O)CN1C(=O)c2ccc(C(=O)O)cc2C1=O	/	-0.73
COCCCNC(=O)c1c(C)oc2ncnc(N3CCOCC3)c12	0.59	/
O=C(NCC(c1ccco1)N1CCOCC1)c1sc2ccccc2c1Cl (stereo not drawn)	1.3	-0.06
CC(NC(=O)c1cnn2c3c(cnc12)CCCCCC3)c1ccc2c(c1)OCCO2 (stereo not drawn)	0.32	/
S=C1NN=C(c2ccccc2)C(c2ccccc2)N1 (stereo not drawn)	/	-1.5
Cc1sc2c(c1C)CSC(C(=O)N1CCN(c3cccc(Cl)c3)CC1)=C2	-1.6	/
Cc1nn2cnnc2c(C)c1CCC(=O)NCc1ccc2c(c1)OCO2	0.15	/
CCCCc1nn2cc(-c3ccc(C)c(C)c3)nc2s1	-0.05	-1.1
O=C(c1ccc(F)cc1)N1CCCC(C(=O)N2CCCCCC2)C1 (stereo not drawn)	/	-1.8
COc1ccc(C2CC(=O)NC(SC)=C2C#N)cc1 (stereo not drawn)	-0.01	-0.9
CN(Cc1ccccc1)c1nnc(NC(=O)Nc2ccc(Br)cc2F)s1	3.4	-1.6
CC1=C(C#N)C(c2ccc(OCc3ccccc3)cc2)C2=C(CCCC2=O)N1 (stereo not drawn)	0.7	0.32
Cc1ccc(C)c(Cn2cccc2CNS(=O)(=O)c2ccc(F)c(Cl)c2)c1	1.4	/
CCc1ccc(-c2cc(C)no2)cc1S(=O)(=O)N(C)CCCc1ccco1	-0.05	/
COCCCNC(=O)c1cc2c(s1)CS(=O)(=O)C2	/	-2.6
CC1(C)CC(=O)c2c(noc2-c2ccccc2)C1	/	-2.4
C=CCn1c(Cc2c(C)[nH]c3ccccc23)nnc1SCC(=O)NC(C)(C)C	-1.7	-0.89
O=C(NC1CCCCC1)N1CCc2cc(S(=O)(=O)Nc3cccnc3)ccc21	1.4	/
CCOCCc1nn2c(=O)cc(COC(=O)c3ccc(Cl)cc3)nc2s1	-0.75	/
O=c1[nH]cnc2c1ncn2[C@H]1CC[C@@H](CO)O1	-0.45	/
Cc1cc(C(C)(C)C)cc(C)c1C#N	/	-0.71
Cc1cc(N(C)/N=C/c2ccc(Br)cc2)nc(-c2ccccc2O)n1	/	-1.9
Cc1cc(=O)n(CC(C)C)c(=O)n1-c1ccccc1	0.98	1
O=C(CCCCn1c(=O)[nH]c2ccsc2c1=O)NCC1CCCO1 (stereo not drawn)	1.2	-1.4
CN1CCN(CCCNC(=O)c2nn(C)c3c2CSc2ccccc2-3)CC1	0.93	-0.27
O=C(c1ccc(=O)[nH]c1)N(Cc1ccco1)C1(C(=O)NC2CCCC2)CCCCC1	/	-1.7
O=C(Nc1ccc(F)cc1)NC1(C(=O)O)CCCCC1	1.9	-1.3
CC(C)NC(=O)N1CCn2cccc2C1Cc1ccccc1 (stereo not drawn)	-1.4	/
O=C(Cn1cc2c(n1)CCCCC2)Nc1ccc(Br)cc1F	0.82	0.3
O=C1c2cccnc2C(=O)N1c1cccc(-c2nc3cc(Cl)ccc3o2)c1	/	1.5
O=S(=O)(NCc1cccn1Cc1ccc(Cl)cc1)c1ccc2ccccc2c1	0.33	/
COc1ccc(-c2nc3n(n2)C(c2ccc(F)cc2)C2=C(CC(C)(C)CC2=O)N3)cc1 (stereo not drawn)	1.1	0.45
CN(C)c1ccc(C2Nc3ccccc3NC3=C2C(=O)CC(c2ccccc2)C3)cc1 (stereo not drawn)	0.43	0.02
Cc1nnc2sc(SC/C=C/c3ccccc3)nn2c1=O	1.8	/
O=C(CSc1nc2c(c(=O)[nH]1)CCC2)Nc1ccc(Cl)cc1	0.6	-0.17
CC1CCC(NC(=O)CCCn2ncn3c(cc4occc43)c2=O)CC1 (stereo not drawn)	0.99	-2.5
CSc1ccccc1C(=O)Nc1nc(-c2nc3ccccc3s2)cs1	1.1	/
Cc1ccnc2nc(NC(=O)c3ccc(C(C)(C)C)cc3)nn12	0.85	1.4
COc1cc(OC)cc(C2=NC3(CCC(C)CC3)NC2=O)c1 (stereo not drawn)	/	1.1
Cn1c(=O)c2c(-c3ccc(Cl)cc3)n(-c3ccccc3)cc2n(C)c1=O	2	-1.3
Cc1ccc(-c2noc(CN(C3CCCCC3)S(=O)(=O)c3ccc(F)cc3)n2)cc1	0.96	-0.73
O=C(c1ccco1)N1c2nc(-c3ccco3)nn2C2(CCCCC2)[C@@H]2CCCC[C@@H]21	0	0.06
CCC(=O)N1CCc2cc(Br)cc(S(=O)(=O)CCC(=O)N(CC)c3ccccc3)c21	1.1	-1.3
COc1cccc(CNc2nccs2)c1O	0.17	-2.1
COC(=O)c1sccc1NC(=O)N1CCn2cccc2C1C(C)C (stereo not drawn)	0.47	/
CCOC(=O)c1noc2ncnc(Nc3cc(OC)cc(OC)c3)c12	0.12	/
CCOC(=O)c1noc2ncnc(NC(C)CC)c12 (stereo not drawn)	-0.12	/
CC(C)(C)c1ccc(C(=O)n2nc(-c3ccc(Cl)cc3)nc2N)cc1	0.42	-1.4
O=C(CC1(O)C(=O)N(CCc2ccccc2)c2ccc(Br)cc21)c1ccc2c(c1)OCO2 (stereo not drawn)	-0.58	-0.35
O=C(CCc1nnc2ccc(NCc3ccc(F)cc3)nn12)NCc1ccc(F)cc1	2.2	/
CCOC(=O)NC(=S)NCc1cccs1	/	0.59
CCCCc1sc(-c2c(C#N)c(N)nc3c2CCCC3)cc1[N+](=O)[O-]	1.4	-5.2
COc1ccc(S(=O)(=O)Nc2ncccn2)cc1	-0.16	0.44
CCN1CCN(CCCNS(=O)(=O)c2cc3[nH]c4c(c3cc2C)C(=O)CC(C)(C)C4)CC1	0.93	/
Cc1cc(C)c(S(=O)(=O)NCCc2sc(-c3cccnc3)nc2C)c(C)c1	1.4	/
Oc1ccccc1C=Nc1ccc(Oc2ccccc2)cc1	/	-0.97
CC1=C(c2ccc(C(C)C)cc2)S(=O)(=O)NC1=NCc1ccccc1F	-0.46	-5.1
NC(=O)C[n+]1ccn2c(Nc3ccccc3)c(-c3ccccc3O)nc2c1	1.9	-1.9

A run of entries of the results above:
SMILES	TAR Tat displ	CDC25B-CDK2 inh
Cc1ccc(-c2noc(CN(C3CCCCC3)S(=O)(=O)c3ccc(F)cc3)n2)cc1	0.96	-0.73
O=C(c1ccco1)N1c2nc(-c3ccco3)nn2C2(CCCCC2)[C@@H]2CCCC[C@@H]21	0	0.06
CCC(=O)N1CCc2cc(Br)cc(S(=O)(=O)CCC(=O)N(CC)c3ccccc3)c21	1.1	-1.3
COc1cccc(CNc2nccs2)c1O	0.17	-2.1
COC(=O)c1sccc1NC(=O)N1CCn2cccc2C1C(C)C (stereo not drawn)	0.47	/
CCOC(=O)c1noc2ncnc(Nc3cc(OC)cc(OC)c3)c12	0.12	/
CCOC(=O)c1noc2ncnc(NC(C)CC)c12 (stereo not drawn)	-0.12	/
CC(C)(C)c1ccc(C(=O)n2nc(-c3ccc(Cl)cc3)nc2N)cc1	0.42	-1.4
O=C(CC1(O)C(=O)N(CCc2ccccc2)c2ccc(Br)cc21)c1ccc2c(c1)OCO2 (stereo not drawn)	-0.58	-0.35
O=C(CCc1nnc2ccc(NCc3ccc(F)cc3)nn12)NCc1ccc(F)cc1	2.2	/
CCOC(=O)NC(=S)NCc1cccs1	/	0.59
CCCCc1sc(-c2c(C#N)c(N)nc3c2CCCC3)cc1[N+](=O)[O-]	1.4	-5.2
COc1ccc(S(=O)(=O)Nc2ncccn2)cc1	-0.16	0.44
CCN1CCN(CCCNS(=O)(=O)c2cc3[nH]c4c(c3cc2C)C(=O)CC(C)(C)C4)CC1	0.93	/
Cc1cc(C)c(S(=O)(=O)NCCc2sc(-c3cccnc3)nc2C)c(C)c1	1.4	/

Additional structures follow:
SMILES	TAR Tat displ	CDC25B-CDK2 inh
CCCC(C(=O)O)N1C(=O)NC2NC(=O)NC21 (stereo not drawn)	2.4	-0.78
Cc1c(Cl)cccc1NC(=O)c1cnc2scc(C)n2c1=O	/	-0.28
COc1ccccc1C(O)(c1ccccc1)C(CN1CCOCC1)c1ccccc1 (stereo not drawn)	3.1	-1.3
CCOC(=O)C(=O)Oc1ccc2c(c1)C(C)=CC(C)(C)N2	2.5	-0.39
c1ccc(CN2CN(c3nccs3)CN(c3nccs3)C2)cc1	-0.79	-1.3
Cc1ccc(C)c(N2CCN(Cc3nnc(-c4cccc(Br)c4)o3)CC2)c1	0.76	-1.8
C=CCn1c(SCC(=O)Nc2ccc(NC(C)=O)cc2)nc2sc3c(c2c1=O)CCC3	/	-4.2
O=C(O)CN1CC(c2ccccc2)CC1=O (stereo not drawn)	0.1	2.8
Cc1ccc(N2CCN(S(=O)(=O)c3ccc4nc(-c5ccccc5)[nH]c4c3)CC2C)cc1 (stereo not drawn)	/	-1.6
CC1(C)CC(=O)C2=C(C1)OC(N)=C(C#N)C2c1ccc(F)cc1F (stereo not drawn)	/	1.9
CC(C)(C)c1ccc(C(=O)CC2(O)C(=O)N(Cc3ccccc3)c3ccccc32)cc1 (stereo not drawn)	/	-0.4
CC(C)Cc1nnc(NC(=O)c2cc(=O)c3ccccc3o2)s1	0.89	-1.7
CC1CCCCN1CCCNC(=O)C1CCCN(c2ncnc3c2nc2n3CCCCC2)C1 (stereo not drawn)	2	/
Cc1cc(C)n(Cc2c(Cl)cccc2Cl)n1	/	-1.6
O=C(O)c1ccc2c(=O)nc3c(-c4cccc(F)c4)n[nH]n3c2c1	0.65	-0.87
CCOc1cc(C(=O)Nc2ccc(O)c(-c3nc4ccccc4o3)c2)cc(OCC)c1OCC	/	-2.6
O=c1cc(N2CCOCC2)nc2n1CCCS2	0.09	0.3
Cc1cn2c(=O)c(S(=O)(=O)N3CCN(C(=O)c4ccco4)CC3)c(C)nc2s1	-1.1	/
CC(C(=O)O)n1nnc2ccccc21 (stereo not drawn)	1.3	0.61
CC(=O)N1c2ccc(S(=O)(=O)N3CCC(C(=O)N4CCOCC4)CC3)cc2CC1C (stereo not drawn)	0.92	/
COc1ccc(C(=O)Nc2cccnc2Oc2ccc(C(C)(C)C)cc2)cc1OC	/	-1.8
CCOC(=O)c1sc(SCC(=O)c2ccc(Cl)cc2Cl)nc1C	/	-1.8
CN(CCO)c1nc2c([nH]1)c(=O)[nH]c(=O)n2C	3	-0.83
CCCn1c2ccccc2c2nnc(SCC(=O)Nc3cc(C)on3)nc21	0.23	1.5

Fetched by compound from above (two):
SMILES	TAR Tat displ	CDC25B-CDK2 inh
O=C(O)c1ccc2c(=O)nc3c(-c4cccc(F)c4)n[nH]n3c2c1	0.65	-0.87
CC1CCCCN1CCCNC(=O)C1CCCN(c2ncnc3c2nc2n3CCCCC2)C1 (stereo not drawn)	2	/

(further entries)
SMILES	TAR Tat displ	CDC25B-CDK2 inh
COCCN1CC23C=CC(O2)C(C(=O)O)C3C1=O (stereo not drawn)	0.45	0.15
O=C(NC1CCCCC1)c1ccc(CS(=O)c2ccc(Cl)cc2)o1 (stereo not drawn)	-0.34	-1.1
C=CCOC(=O)c1sc(NC(=O)CSc2nnc3ccc4ccccc4n23)nc1C	-1.3	-0.23
CN(Cc1ccccc1)Cc1c(O)ccc2c(-c3ccccc3)cc(=O)oc12	/	-1.2
COc1ccc(OCCCN2C(=O)C(=O)c3ccccc32)cc1	2.3	-1.9
COc1ccc(N2CCCS2(=O)=O)cc1NS(=O)(=O)CCc1ccccc1	0.99	/
Cc1ccc2oc3c(c(=O)c2c1)C(c1ccc(O)cc1)N(Cc1ccc2c(c1)OCO2)C3=O (stereo not drawn)	1.8	2.1
CN(C1CCCCC1)S(=O)(=O)N1CCCC(C(=O)NCCc2cccs2)C1 (stereo not drawn)	2	/
CCOC(=O)C1CCN(C(=O)C2c3ccccc3Oc3ccccc32)CC1	/	-1.6
CCCCN(C)C(=O)C1CCN(S(=O)(=O)c2ccc3c(c2)CC(C)N3C(=O)C2CC2)CC1 (stereo not drawn)	-0.06	/
Cc1cc(C)nc(NS(=O)(=O)c2ccc(NC(=O)Nc3sc(=S)n(C)c3C)cc2)n1	/	-0.26
CC(C)(O)C#Cc1ccc(C(=O)N2CCN(Cc3ccc4c(c3)OCO4)CC2)cc1	2	-0.94
CCCC(=O)OCc1cnc(C)c2oc(=O)c(-c3nc(-c4ccccc4)no3)cc12	2.9	-1.3
CC(C)(C)N(CCNS(=O)(=O)c1csc(C(N)=O)c1)Cc1ccco1	-1.1	/
Cc1ccc(OCC(=O)OCc2cc(=O)n3c(C)csc3n2)cc1	0.44	/
Cc1ccc(-c2ccc(=O)[nH]n2)cc1S(=O)(=O)NC(C)c1ccccc1 (stereo not drawn)	0.41	-0.94
C=CCOC(=O)COc1ccc2c3c(c(=O)oc2c1C)CCC3	/	-0.76
COC(=O)c1ccc(S(=O)(=O)NNC(=O)COc2ccc(OC(F)(F)F)cc2)n1C	/	-0.53
CC(=O)NCc1c(Cl)cccc1Sc1ccc(Cl)cc1	/	-1.4
CC1=C(C(=O)OC2CCCCC2)C(c2ccncc2)C2=C(CCCC2=O)N1 (stereo not drawn)	0.54	-1.4
CC1(C)CC(=O)c2cc(OCC(=O)N3CCOCC3)ccc2O1	/	0.15
CC1(C)CC(=O)c2cc(C(=O)NC3CCCCC3)c(=O)n(-c3ccc(Cl)cc3)c2C1	-0.2	-0.6
CC(C)NC(=O)C(=O)NCC1OCCCN1S(=O)(=O)c1ccc2c(c1)OCCO2 (stereo not drawn)	/	-2.2
NC(=O)C1CCN(c2c(Cl)cncc2Cl)CC1	/	-0.04
Cc1ccc2oc(-c3cc(NC(=O)COc4ccc(Cl)cc4C)ccc3O)nc2c1	/	-3
Cc1c(-n2c(-c3ccco3)nc3ccccc3c2=O)c(=O)n(-c2ccccc2)n1C	/	-0.51
Fc1ccc(-n2ncc3c(Nc4ccc5c(c4)OCO5)ncnc32)cc1	1.4	/
N#Cc1nc(=O)n(-c2ccc(OC(F)(F)F)cc2)c(N)c1N=Cc1ccc(C(F)(F)F)cc1	/	-0.84
COc1ccc(-c2ccc(NS(=O)(=O)c3cccc(F)c3)cc2)nn1	0.58	/
CC1=C(C(=O)Nc2ccccc2C(=O)NC2CC2)SCCO1	1.7	/
CC(C)C(NC(=O)OC(C)(C)C)C(=O)NC(c1ccccc1)c1ccccc1 (stereo not drawn)	/	-0.51
